KCNQ2 pot: potentiators of rat KCNQ2 potassium channel | B-score at 10 µM | actives 0.54% (n = 310,000) | CHO-K1 KCNQ2, FluxOR thallium flux fluorescence; stronger effect = higher value | O88943;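 active = fluorescence ratio B-score at least 3 SD of library B-scores, with initial fluorescence B-score within 3 SD, cut at about 5.3 in these data; same plate scores as AID 2156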;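 also: B-score of peak minus minimum over baseline fluorescence ratio after K+ and Tl+ stimulus; positive B-score means potentiation of KCNQ2 with more thallium influx and brighter signal; only the inactives scoring about 0 or higher are listed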
Target sequence (O88943 whole entry, looked up): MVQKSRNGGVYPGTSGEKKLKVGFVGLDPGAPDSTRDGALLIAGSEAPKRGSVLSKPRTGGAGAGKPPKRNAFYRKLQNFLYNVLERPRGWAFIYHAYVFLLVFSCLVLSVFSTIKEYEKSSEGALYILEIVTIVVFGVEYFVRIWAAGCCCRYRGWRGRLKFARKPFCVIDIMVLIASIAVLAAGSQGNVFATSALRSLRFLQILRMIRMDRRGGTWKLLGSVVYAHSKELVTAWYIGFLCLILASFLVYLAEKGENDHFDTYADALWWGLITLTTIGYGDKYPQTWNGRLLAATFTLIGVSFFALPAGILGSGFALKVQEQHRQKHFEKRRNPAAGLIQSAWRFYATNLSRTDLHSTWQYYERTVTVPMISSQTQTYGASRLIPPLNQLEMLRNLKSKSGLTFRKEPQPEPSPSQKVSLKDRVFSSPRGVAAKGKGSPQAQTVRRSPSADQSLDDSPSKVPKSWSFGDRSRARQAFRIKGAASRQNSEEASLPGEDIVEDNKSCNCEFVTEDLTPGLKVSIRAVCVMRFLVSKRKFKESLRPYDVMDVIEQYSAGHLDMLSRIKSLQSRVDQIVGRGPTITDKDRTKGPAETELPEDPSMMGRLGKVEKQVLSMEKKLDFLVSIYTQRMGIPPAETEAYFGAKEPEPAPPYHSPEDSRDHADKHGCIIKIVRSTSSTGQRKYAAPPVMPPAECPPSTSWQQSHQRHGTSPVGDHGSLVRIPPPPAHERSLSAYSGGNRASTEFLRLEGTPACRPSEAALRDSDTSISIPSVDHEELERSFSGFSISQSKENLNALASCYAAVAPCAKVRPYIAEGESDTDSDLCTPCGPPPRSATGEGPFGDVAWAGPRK
KCNQ2 pot baseline: also measured in KCNQ2 pot; calls as there; B-score; compound at 10 µM; measured here: initial fluorescence intensity artifact check;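 brightness before thallium and not channel activity; 0 = typical well and far values either way flag optical interference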
Numbers without * were called inactive. Some of the compounds tested; count on the stated rates, not on these rows.

SMILES	KCNQ2 pot	KCNQ2 pot baseline
Cc1c(N/C(=N/S(=O)(=O)c2ccc(Cl)cc2)c2ccccc2)c(=O)n(-c2ccccc2)n1C	0.51	0.64
O=C(O)c1ccccc1SCc1csc(-c2ccccc2)n1	0.07	0.6
Cc1cccc(-n2ccc(=O)c(C(=O)O)n2)c1	0.47	0.89
Cc1nc2sccn2c(=O)c1S(=O)(=O)Nc1ccc(N2CCN(C)CC2)cc1	0.45	-0.39
COc1ccc(Cc2noc(-c3ccc(OC)c(OC)c3)n2)cc1OC	0.12	-1.9
COC(=O)c1ccc(Oc2cc(C)nc(NCc3ccccc3)n2)cc1	0.55	1.4
O=C(N/N=C/c1ccncc1)c1ccc(-n2cccc2)cc1	0.12	-1.7
Cc1ccc(NC(=O)c2cnn(-c3ccccc3)c2NC(=O)c2ccco2)cc1C	1.2	0.03
CS/C(=N\S(=O)(=O)c1cccs1)Nc1ccc(F)cc1	2.1	-2.1
O=C(N/N=C/c1ccc(N2CCOCC2)o1)c1ccccc1[N+](=O)[O-]	0.02	-0.06
CC(=O)Nc1cccc(/C(C)=N/NC(=O)c2cccs2)c1	0.22	1.6
CC(C)n1c(C(=O)OCC(=O)NCc2ccc3c(c2)OCO3)cc2sccc21	0.05	-1.9
O=C1CCCCCN1C(=O)c1ccc(C(=O)N2CCCCCC2=O)cc1	1.3	-0.32
COc1ccc(OC)c(-c2cc(C(=O)N/N=C/c3cc(OC)c(OC)cc3OC)c3ccccc3n2)c1	0.44	0.64
O=C(O)c1ccc2c(c1)c1c3n2CCNC3CCC1 (stereo unspecified)	1.2	-1.4
NS(=O)(=O)c1cc(C(=O)N2CCc3ccccc32)c(Cl)cc1Cl	0.39	0.08
CCN1C(=O)N[C@H](c2ccc(Br)cc2)C(C(=O)OC)=C1C	0.07	0.1
CCc1cc(S(N)(=O)=O)cc(CC)c1NC(C)=O	0.07	0.24
COc1cccc(CN2CCC(CO)(CC3CCCCO3)CC2)c1 (stereo unspecified)	0.14	2.9
Cc1ccc(C(=O)Nc2ccc(Oc3ccc(C(=O)O)c(C(=O)O)c3)cc2)cc1C	1.8	0.01
CCOC(=O)N1CCC(NC(=O)c2ccccc2C(=O)O)CC1	0.54	0.06
CN1CCN(C(=O)C2CCCN(c3ncnc4c3nc3n4CCCCC3)C2)CC1 (stereo unspecified)	0.5	0.59
COc1ccc(OC)c(-n2c(-c3cnccn3)n[nH]c2=S)c1	1.1	0.39
O=C(Nc1ccc(S(=O)(=O)N2CCOCC2)cc1)c1ccc2c(c1)S(=O)(=O)c1ccccc1C2=O	0.18	1.6
CC(NC(=O)C1CCCN(S(=O)(=O)c2cccc3nonc23)C1)c1ccccc1 (stereo unspecified)	0.16	-3.5
C/C(=N/NC(=O)CC1N=C(Cc2ccccc2)NNC1=O)c1cccnc1 (stereo unspecified)	0.92	-0.05
O=C(Nc1ccccc1C(=O)NCc1cccnc1)c1cccc([N+](=O)[O-])c1	0.37	0.75
O=C(Cn1ncc2c3ccccc3n(Cc3ccccc3)c2c1=O)N1CCN(c2ccccn2)CC1	7.5*	-0.48*
COc1ccc(S(=O)(=O)Nc2ccc3oc(C)c(C(=O)O)c3c2)cc1	1.6	-0.23
Cc1nnc2ccc(-c3ccc(NS(C)(=O)=O)cc3)nn12	0.1	0.46
COC(=O)C1(C)NC(c2ccc(C)cc2)C2C(=O)N(c3ccc(F)cc3)C(=O)C21 (stereo unspecified)	1	0
CCCCn1nnnc1NCc1cccc(OC)c1OC	0.56	1.3
O=C(c1cc(COc2ccc(F)cc2Cl)on1)N(Cc1ccncc1)CC1CCCO1 (stereo unspecified)	0.36	-1.5
CCCCN(CC)S(=O)(=O)c1c(C)[nH]c(=O)[nH]c1=O	0.5	0.48
CCOc1ccc(S(=O)(=O)N2CCC(C(=O)NCCc3ccc(S(N)(=O)=O)cc3)CC2)cc1	1.2	-0.98
Cc1cc(NC(=O)CSc2nnc(CNC(=O)c3c(F)cccc3F)o2)no1	0.07	0.01

Five entries picked at random from the list so far, as already listed:
SMILES	KCNQ2 pot	KCNQ2 pot baseline
COC(=O)C1(C)NC(c2ccc(C)cc2)C2C(=O)N(c3ccc(F)cc3)C(=O)C21 (stereo unspecified)	1	0
CC(NC(=O)C1CCCN(S(=O)(=O)c2cccc3nonc23)C1)c1ccccc1 (stereo unspecified)	0.16	-3.5
CCCCN(CC)S(=O)(=O)c1c(C)[nH]c(=O)[nH]c1=O	0.5	0.48
COc1ccc(S(=O)(=O)Nc2ccc3oc(C)c(C(=O)O)c3c2)cc1	1.6	-0.23
C/C(=N/NC(=O)CC1N=C(Cc2ccccc2)NNC1=O)c1cccnc1 (stereo unspecified)	0.92	-0.05

(more compounds)
SMILES	KCNQ2 pot	KCNQ2 pot baseline
CN(C(=O)CC(=O)Nc1ccc(Cl)c(Cl)c1)c1ccccc1	0.25	0.12
Cc1[nH]c(=O)[nH]c(=O)c1S(=O)(=O)N1CCCC(C(=O)NCc2ccco2)C1 (stereo unspecified)	0.67	0.38
COc1ccc(-n2c(C)nn(CC3CC3)c2=O)cc1	0.85	-0.4
O=C(Nc1ccc(N2CCOCC2)cc1)Nc1ccc2nsnc2c1	3.5	-0.85
COc1ccc(NC(=O)CSc2nnc(-c3ccccc3)n2N)cc1	2.1	-0.35
CCn1ncc(C2=NOC(C(=O)NCc3ccc(OC)cc3)C2)c1C (stereo unspecified)	1.3	-1.5
Cn1c(=O)c([N+](=O)[O-])c(NCCc2ccccc2)c2ccccc21	0.31	0.29
CN(CC(=O)Nc1ccc(N2CCOCC2)cc1)CC(=O)Nc1ccc(C(F)(F)F)cc1	1	0.06
COc1ccc(NC(=O)CN(C)S(=O)(=O)c2ccc(Cl)cc2)c([N+](=O)[O-])c1	1.1	-0.99
CC(=O)c1ccc(S(=O)(=O)Nc2ccc(-c3cn4c(n3)SCC4)cc2)cc1	0.61	-0.72
CC(=O)O[C@]1(C(C)=O)CC[C@H]2[C@@H]3C[C@H](C)C4=CC(=O)CC[C@]4(C)[C@H]3CC[C@@]21C	0.12	0.87
CN(CC(=O)Nc1ccccc1C(F)(F)F)C(=O)CSCc1ccccc1	1.7	0.63
CCOC(=O)Cc1nnc(NC(=O)CSc2ccc(C)cc2)s1	1.5	-0.05
COc1ccc(NS(=O)(=O)c2ccc3c(c2)CCO3)cc1	0.02	-0.64
COc1ccc(-c2c(C)c3ccc(O)cc3oc2=O)cc1OC	0.7	-0.53
Nc1nc(SCC(=O)N2CCc3ccccc32)[nH]c(=O)c1-c1ccccc1	0.77	0.77
CC(=O)Nc1ccc(-c2csc(Nc3ccccn3)n2)cc1	1.6	0.65
Cc1cccc(Cn2c(=O)n(CCCC(=O)NCc3ccco3)c(=O)c3ccccc32)c1	0.59	-1.6
CCC(C(=O)Nc1ccccc1OC)n1c(C(=O)OC)cc2ccsc21 (stereo unspecified)	0.22	-1.7
CCCCc1n[nH]c(=S)n1Cc1ccc(C)cc1	0.01	-1.4
COc1ccccc1NC(=O)c1ccc(NC(=O)CSc2n[nH]c(N)n2)cc1	0.61	1.2
CC(=O)N1CC=CC1(C)C(=O)O (stereo unspecified)	0.51	-1.6
NC(=O)c1ccc(N2CCOCC2)nc1	1.8	-1.3
O=C(NCc1ccco1)c1cc(-c2ccccc2)nn1CC1CC(c2cccnc2)=NO1 (stereo unspecified)	0.44	-0.81
CC(C)CNC(=O)CC(c1ccccc1)c1ccccc1	1.1	0.72
COc1ccc(NC(=O)COc2nsnc2N2CCCCC2)cc1	1.4	-0.3
Cc1cnc(NC(=O)C(C)N2CCN(C)CC2)s1 (stereo unspecified)	0.4	-1.6
COc1ccc(-n2nnc3c(SCC(=O)N4CCCc5ccccc54)ncnc32)cc1	0.65	1.5
CC1=NN(c2ccc(C(F)(F)F)cn2)C(=O)C1	0.85	-0.24
C=CCNC(=O)c1cc2cccc(OC)c2oc1=O	1.7	-0.02
CCOc1ccc(C2=[N+]([O-])C(C)(C)N(O)C2(C)C)cc1	1	0.7
CC(C)CC1(C)NC(=O)N(Cc2cc([N+](=O)[O-])cc3c2OCOC3)C1=O (stereo unspecified)	0.62	-0.15
CCOC(=O)C1(Cc2ccc(OC)cc2)CCN(C(=O)c2cc(C)on2)CC1	1.1	0.01
CCOC(=O)c1nc2sc(C)c(C)c2c(=O)[nH]1	0.03	-0.35
CCCc1cc(C(=O)Nc2ccccc2SC)no1	0.27	1.2
O=C(CSc1ccc(-c2ccco2)nn1)NCc1ccccc1	0.06	-3
O=C1CN(C(=O)COC(=O)c2cccc(S(=O)(=O)NCc3ccccc3)c2)c2ccccc2N1	0.13	1.4
Cc1cc(=O)[nH]c(SCC(=O)c2ccc(C)c(C)c2)n1	0.64	0.25
CC(Sc1ncc(C#N)c(N)n1)C(=O)Nc1ccccc1 (stereo unspecified)	0.03	0.86
CC(=O)c1cccc(NC(=O)Nc2c(C)nn(C)c2C)c1	1.4	0.01
c1coc(Cn2nnnc2CN2CCN(C3CCCC3)CC2)c1	0.52	-1.3
Cc1nc2sccn2c(=O)c1S(=O)(=O)Nc1ccc(N2CCN(C(=O)C(C)C)CC2)cc1	0.55	2
C/C(CC1CC(COCC(C)C)OC1=O)=N\Nc1nc(-c2ccccc2)cs1 (stereo unspecified)	2.8	0.75
CCN(CC)S(=O)(=O)c1ccc(Cl)c(NC(=O)COC(=O)/C=C/c2ccc(O)c(OC)c2)c1	1.1	-1.8
CC1=C(C#N)C(Nc2ccc(C)cn2)(C(F)(F)F)C(=O)N1 (stereo unspecified)	0.85	0.41
COc1ccc(CCNC(=O)C2CCC(CNc3c(N4CCCC4)c(=O)c3=O)CC2)cc1OC (stereo unspecified)	0.65	-3.4
COc1ccc(NC(=O)c2cc(F)c(F)cc2Cl)cc1Cl	2.1	-0.02
Cc1ccc(CNC(=O)CC2Nc3c4ccccc4nc(=S)n3C2=O)cc1 (stereo unspecified)	1.6	0.38
CCOc1cccc2sc(N(CCCN(C)C)C(=O)c3ccc(S(=O)(=O)N(C)CC4CCCO4)cc3)nc12 (stereo unspecified)	0.09	0.19
O=C(CN1CCOCC1)NCCNS(=O)(=O)c1ccccc1	1.1	-1.6
CCOc1cccc(OCCCCn2ccnc2)c1	0.64	-1.3
CCOC(=O)c1c(C)[nH]c(C(=O)OCC(=O)N(C)C2CCS(=O)(=O)C2)c1C (stereo unspecified)	0.5	-1.8
O=C(O)CCNS(=O)(=O)c1ccc2ccccc2c1	0.24	1.1
OC(c1ccccc1)c1nc2ccccc2s1 (stereo unspecified)	0.78	-0.3
Cc1ccc(S(=O)(=O)N2CCCCC2)cc1	0.2	-1.2
Cc1cc(/C=C2\C(=N)N3N=C(C(C)C)SC3=NC2=O)c(C)n1Cc1ccccc1	2.4	-1.9
O=C(NCCc1ccc(Cl)cc1)c1ccc(NC2=NC3CS(=O)(=O)CC3S2)cc1 (stereo unspecified)	0.08	1.8
O=C(CSc1nncs1)NC1CCCc2ccccc21 (stereo unspecified)	0.2	-0.96
Cc1cc2cc(C)c(NCCNC(=O)c3cccs3)nc2cc1C	0.08	0.55
CCOC(=O)C1(Cc2ccc(Cl)cc2)CCN(Cc2ccon2)CC1	1.1	1.1

Additional results.
SMILES	KCNQ2 pot	KCNQ2 pot baseline
Cc1cc(-c2c(C(=O)N3CCOCC3)c(C)nn2-c2cccc(C(F)(F)F)c2)no1	0.04	-0.24
COc1cc(NC(=O)CN2CCN(c3ccccc3)CC2)c(C)cc1[N+](=O)[O-]	0.58	1.1
Cc1ccc(C(=O)Nc2nc(-c3ccc(F)cc3)cs2)o1	0.79	0.15
COc1ccc(CC(=O)Nc2nnc(SCc3ccccc3)s2)cc1S(=O)(=O)N1CCOCC1	0.71	1.8
Cc1cc(C)n2nc(SCC(=O)Nc3c(C)nn(-c4ccccc4)c3C)nc2n1	0.14	0.31
c1ccc2c(c1)[nH]c1nc3nncn3nc12	0.7	-0.02
COc1cc([N+](=O)[O-])cc(/C=N/NC(=O)C(C)Nc2cccc3ccccc23)c1O (stereo unspecified)	0.91	-0.81
Cc1ccc2nc(NC(=O)C3CCCN(S(=O)(=O)c4cccnc4)C3)sc2c1 (stereo unspecified)	0.46	-0.86
CCc1cc(C(=O)N2CCCC(CO)(Cc3ccc(F)cc3)C2)n(C)n1 (stereo unspecified)	1.6	0.82
CC(C)OC(=O)CSc1nc(-c2ccc(F)cc2)cc(C(F)(F)F)n1	0.01	-1.4
COc1cc(OC)c(NC(=O)c2ccccc2F)cc1Cl	1.1	0.49
O=C(NC1CCC(O)CC1)c1ccc(-c2ccc(Cl)cc2)o1 (stereo unspecified)	1.4	1.2

Single records, from the list above. Screens in order: KCNQ2 pot, KCNQ2 pot baseline
Entry for COc1cc(OC)c(NC(=O)c2ccccc2F)cc1Cl → 1.1, 0.49
Entry for O=C(NC1CCC(O)CC1)c1ccc(-c2ccc(Cl)cc2)o1 (stereo unspecified) → 1.4, 1.2
Entry for c1ccc2c(c1)[nH]c1nc3nncn3nc12 → 0.7, -0.02
Entry for CC(C)OC(=O)CSc1nc(-c2ccc(F)cc2)cc(C(F)(F)F)n1 → 0.01, -1.4
Entry for COc1cc(NC(=O)CN2CCN(c3ccccc3)CC2)c(C)cc1[N+](=O)[O-] → 0.58, 1.1

Later entries
SMILES	KCNQ2 pot	KCNQ2 pot baseline
COCCn1c(=S)[nH]c2cc(C(=O)N3CCN(c4ccc(F)cc4)CC3)ccc2c1=O	1.7	-0.3
COc1cc(NS(=O)(=O)c2ccc(NC(=O)/C=C/c3cccc([N+](=O)[O-])c3)cc2)ncn1	0.17	0.13
N#C/C(=C(\O)C(F)(F)F)c1nnc2n1CCCCC2	0.98	0.47
CC(=O)Nc1c2c(nn1-c1ccccc1C)CS(=O)(=O)C2	0.02	-1.1
O=C(/C=C/c1ccccc1)OCCCN=C1NS(=O)(=O)c2ccccc21	0.15	-0.39
COc1cccc(OCC(=O)Nc2ccc(OC)c(OC)c2)c1	0.42	1.4

High-throughput results from PubChem BioAssay.
